Screens deposited in PubChem BioAssay by National Center for Advancing Translational Sciences (NCATS).
VACV Venus inh: vaccinia inhibition (Venus reporter). Vaccinia virus Venus reporter expression, fluorescence. hit rate 0.46% among 330,000. Potency, µM (highest dose often 36.5 µM), for the others: top-dose activity change, negative = inhibition, hits mostly inhibitors. AID 720580; active means well fitted inhibition curve with a large enough effect; inconclusive means small, poorly fitted or top-dose-only effect; inactive means no such curve, though single readings can be large or run the other way; tested in A549 cells; note: nearly all actives have a fitted effect of over 30% in size; inactives centre near -10
Vaccinia mCherry: vaccinia inhibition (mCherry reporter); hit rate 0.63% among 310,000; Vaccinia virus mCherry reporter infection, fluorescence; about a quarter of the inactives have no number; Potency, µM (series often up to 36.5 µM), for inactives: at the top dose activity change, negative = inhibition, actives largely listed as inhibitors; active = well fitted inhibition curve with a large enough effect; inconclusive = small, poorly fitted or top-dose-only effect; inactive = no such curve, though single readings can be large or run the other way; tested in A549 cells; note: nearly all actives have a fitted effect of over 35% in size; inactives centre near -10
The depositor's hits bear a star; i = inactive; u = inconclusive; x = no result given; & = joins results of further samples; [ ] = another dose, or the depositor's remark. % is set by controls: 0 for no effect and ±100 for the full control effect; potency is the fitted concentration of half-maximal effect. Compounds as they come. About 0.86% of those tested had a hit in this group.

Results follow in this order: VACV Venus inh, Vaccinia mCherry
> CN1C(=O)CC(C(=O)Nc2ccccc2F)SC1=Nc1ccc2c(c1)OCO2 (stereo not drawn)
  -10.5%, i
> Cc1ccc2c(CC(=O)N(C)c3c(N)n(Cc4ccccc4)c(=O)[nH]c3=O)coc2c1
  -5.2%, i
> Cc1ccc(/C=C/C(=O)Nc2nnc(SCc3ccc(C#N)cc3)s2)o1
  -5.4%, -27.6%
> COCCOc1cc(N(CC(=O)N(C)C)S(=O)(=O)c2ccccc2)c(Cl)cc1Cl
  -9.4%, -11.1%
> O=C(COC(=O)c1cc(S(=O)(=O)N2CCOCC2)ccc1F)NCc1ccco1
  -24.5%, -24.3%
> Cc1ccc(-n2cc[nH]c2=S)cc1C
  -15.6%, -20.3%
> C/C=C\C=C\C(=O)Nc1cccc(C2=NOC3(C2)C[C@@H](C(N)=O)N(C(=O)C(c2ccccc2)c2ccccc2)C3)c1 (stereo partly drawn)
  u, -6.3%
> N#Cc1ccc(Cl)cc1NC(=O)COC(=O)c1ccc2c(c1)OCCO2
  -4.4%, -10.1%
> N#Cc1cccc(NC(=O)COC(=O)c2ccccc2Sc2ccccc2C#N)c1
  -15.0%, -19.3%
> CC1(C)CC(=O)C(C(=S)Nc2ccc(F)cc2)=C(NCCN2CCOCC2)C1
  -10.1%, -22.7%
> COc1ccc(-n2c(C)cc(-c3csc(NC(=O)c4ccc(S(=O)(=O)N(C)C)cc4)n3)c2C)cc1
  -6.9%, i
> Cc1cc(C)cc(NC(=O)N(CCC#N)Cc2cccs2)c1
  -10.8%, i
> O=S(=O)(c1ccccc1)c1nc(-c2ccco2)oc1Nc1ccccc1
  -7.7%, -18.3%
> O=C(COC(=O)CCSc1ccccc1)NCc1ccc(F)cc1
  -6.3%, i
> O=C(NCC1=C(c2cccc3ccccc23)C[C@@H]2CC[C@H]1N2Cc1ccco1)c1cccs1
  -11.9%, -18.2%
> Cc1ccc(-c2cc(C(=O)Nc3c(C)n(C)n(-c4ccccc4)c3=O)no2)cc1
  -11.6%, i
> Nc1c(N=O)c(=O)[nH]c(=O)n1-c1ccccc1
  -8.6%, i
> CCn1cc(CN2CCC(Oc3ccc(C(=O)N4CCCCC4)cc3)CC2)cn1
  -18.3%, -3.1%
> O=Cc1cccn1-c1ccccc1
  6.6%, 4.4%
> O=C(CSc1nnnn1-c1cccc2c1CCCC2)N1CCOCC1
  -12.9%, -20.5%
> COc1cc(C(=O)NCCSc2c(-c3ccccc3)[nH]c3ccccc23)cc(OC)c1OC
  u, u
> NNC(=O)c1cccc(O)c1
  -8.3%, -13.9%
> CCOC(=O)CCCCC(=O)NC(CO)C(=O)NC (stereo not drawn)
  -10.3%, x
> C=CCN1C(=Nc2ccccc2)SC/C1=C\C(=O)OC
  -7.7%, -10.6%
> O=C(CS(=O)(=O)Cc1ccccc1)NCc1ccco1
  4.3%, i
> CCN(CC)CCOCCOC(=O)C(CC)(CC)c1ccccc1
  -16.4%, -23.9%
> C=CCOc1ccc2c(c1)CCC1C2CCC2(C)C(O)C(O)CC12 (stereo not drawn)
  -28.1%, u
> CCCSc1nc2c3c(sc2c(=O)[nH]1)CC(C)(CC)OC3 (stereo not drawn)
  -13.2%, -12.0%
> COc1cc(CN2CCOc3ccc(CN4CCC(O)(c5cccnc5)CC4)cc3C2)cc(OC)c1
  3.5%, -16.9%
> Cc1ccc(NC(=O)C2CCN(C(=O)NCc3ccccc3)CC2)cc1C
  -2.9%, -9.2%
> O=[N+]([O-])c1c(O)c(Cl)cc(Cl)c1Cl (tested in a mixture with another compound)
  -9.1%, -20.3%
> CC1CCc2c(sc3nc(CN4CCN(S(=O)(=O)c5ccccc5[N+](=O)[O-])CC4)[nH]c(=O)c23)C1 (stereo not drawn)
  -15.3%, i
> CCCCNC(=O)C[C@@H]1C[C@@]2(C(=O)OCC)CCC=C2N(Cc2ccccc2)C1=O
  -12.8%, -4.8%
> COc1ccc(-c2oc(=O)c3cc(OC)c(OC)cc3c2C#CC2(O)CCCCC2)cc1
  -8.7%, -24.6%
> O=C(Cc1ccc(Cl)cc1)NC1CC(=O)N(c2ccc3c(c2)OCCO3)C1 (stereo not drawn)
  -3.0%, -8.9%
> NC(N)=Nc1ccc(N=C(N)N)cc1
  2.0%, u
> CCCn1nc2ccccc2c1P(=O)(N1CCOCC1)N1CCOCC1
  -3.3%, 1.7%
> COc1ccc(OC)c(NC(=O)CCNC(=O)c2ccco2)c1
  -8.0%, -7.3%
> O=C(CN(c1cccc(Br)c1)S(=O)(=O)c1ccccc1)N/N=C/c1cc([N+](=O)[O-])ccc1O
  -23.9%, -23.6%
> CC(=O)c1ccc(NC(=O)C2=CC(c3ccc(C)cc3)=NS(=O)(=O)N2C)cc1
  -14.7%, -12.2%
> O=C(NCc1ccccc1)C(=O)NCC1COc2ccccc2O1 (stereo not drawn)
  u, u
> O=c1[nH]c(/C=C/c2ccccc2Cl)c([N+](=O)[O-])c(=O)[nH]1
  -6.0%, -10.4%
> CCn1cc(C(=O)N(CCC(C)C)c2c(N)n(Cc3ccccc3)c(=O)[nH]c2=O)c(=O)c2ccc(C)nc21
  -21.5%, i
> CCCCN1C(=O)C(O)(CC(=O)c2ccc(CC)cc2)c2cc(Br)ccc21 (stereo not drawn)
  -1.5%[7.34 µM], -10.2%[7.34 µM]
> CC(C)OCC1CC(CC(=O)NC(=S)Nc2cccc([N+](=O)[O-])c2)C(=O)O1 (stereo not drawn)
  -7.1%, -28.7%
> CCc1cc(=O)[nH]c(SCc2nc(-c3ccccc3)no2)n1
  -4.6%, -11.3%
> CC(C)CCNC(=O)Cn1c(NCCC(C)C)nc2c1c(=O)n(C)c(=O)n2C
  -13.5%, i
> CN(C)S(=O)(=O)N1CCN(C(=O)c2cccc(Br)c2)CC1
  -2.7%, -11.2%
> COc1ccc(-n2c(C)nc3c(cnn3-c3ccc(Cl)cc3)c2=O)cc1
  u, u
> CCCn1c(N)c(N(CCOC)C(=O)c2ccc(N(C)S(=O)(=O)c3ccc(C)cc3)cc2)c(=O)[nH]c1=O
  -14.2%, i

(continued)
Results follow in this order: VACV Venus inh, Vaccinia mCherry
> O=C(Nc1ccc(S(=O)(=O)N2CCCC2)cc1)C1CC(=O)N(CCc2ccc(F)cc2)C1 (stereo not drawn)
  -16.4%, -25.6%
> CC(C)NC(=O)CSc1nc(N)c(NC(=O)c2ccccc2F)c(=O)[nH]1
  -4.0%, -0.6%
> O=C1CCC2(O)C3Cc4ccc(O)c5c4C2(CCN3Cc2ccoc2)C1O5 (stereo not drawn)
  -9.2%, -11.9%
> Cc1ccc(NC(=O)c2ccc(CN3CC(=O)N4CCCCC4C3=O)cc2)cc1C (stereo not drawn)
  -21.4%, i
> COc1ccc(C2(c3ccc(OC)cc3)NC(=O)N(CC(=O)Nc3cc(C)on3)C2=O)cc1
  -4.5%, -11.7%
> N/C(Cc1ccc([N+](=O)[O-])cc1)=N\OC(=O)CC1CCCCC1
  -5.6%, -16.4%
> CC(C)(C)c1ccc(S(=O)(=O)N2CCC(CO)(CC3CCCCO3)CC2)cc1 (stereo not drawn)
  -7.8%, -12.3%
> Cc1ccc(S(=O)(=O)N2CCN(CC(=O)Nc3ccc(N4CCOCC4)cc3)CC2)cc1C
  -8.8%, u
> COc1ccc(N2C(=O)C3CCCN3C2=S)cc1 (stereo not drawn)
  -14.8%, -14.8%
> Cc1cc(CNC(=O)c2cccc([N+](=O)[O-])c2C)c2ccccc2n1
  -19.2%, -8.4%
> CCOc1ccc(NC(=O)CN2C(=O)S/C(=C/c3cccn3C)C2=O)cc1
  -1.7%, -9.0%
> Cc1c(NC(=O)C2Cc3ccccc3CN2C(=O)c2ccco2)c(=O)n(-c2ccccc2)n1C (stereo not drawn)
  -10.3%, i
> COP(=O)(OC)C(NS(=O)(=O)c1ccccc1)C(Cl)(Cl)Cl (stereo not drawn)
  -4.4%, -2.3%
> Cc1ccc(NC(=O)CSc2nnc(C)c(=O)[nH]2)cc1C
  14.4%, -13.5%
> CCN(CC)c1ccc(CN(C(=O)c2cccs2)C2CCS(=O)(=O)C2)cc1 (stereo not drawn)
  -5.8%, -3.6%
> O=C(Nc1ccc2c3c(cccc13)CC2)c1ccccc1
  -3.4%, i
> CN(Cc1ccccc1)C(=O)CCCn1c(=O)[nH]c2cc(Cl)ccc2c1=O
  u, x
> CCC1S/C(=N\S(=O)(=O)c2cccs2)N(C2CCCCC2)C1=O (stereo not drawn)
  2.2%, -7.6%
> Cc1ccc(OCc2cn3cccnc3n2)cc1
  -3.5%, -9.7%
> CCC1(c2ccc(Cl)cc2)NC(=O)N(CC(=O)N2CCN(C(=O)c3ccco3)CC2)C1=O (stereo not drawn)
  -7.4%, -23.8%
> CN1CCN(c2ccc(CNC(=O)C3Cc4c(-c5ccc6c(c5)OCO6)ccnc4O3)cc2)CC1 (stereo not drawn)
  -22.8%, i
> CC(C)N1CCc2c(sc(NC(=O)c3ccco3)c2C(N)=O)C1
  -26.4%, u
> O=C(Nc1ncc2c(n1)-c1ccccc1OC2)c1ccc(F)cc1
  -7.9%, -14.1%
> Cc1ccc(O)c(CNc2ccccn2)c1
  -11.2%, -21.5%
> Cc1ccc(CN(C(=O)COc2ccc([N+](=O)[O-])cc2)C2CCS(=O)(=O)C2)o1 (stereo not drawn)
  -6.9%, i
> Nc1ccc(-c2nnc(-c3ccccc3)o2)cc1
  6.3%, -12.8%
> COC(=O)c1cc(S(=O)(=O)Nc2nn(C)c3ccccc23)oc1C
  -8.1%, -13.8%
> Cn1ccc(NC(=O)Nc2ccc(Cl)cc2)n1
  -4.4%[7.34 µM], i[7.34 µM]
> Cc1ccc2[nH]c(=O)c(CN3CCCCC3)c(-c3ccccc3)c2c1
  -8.4%, i
> COc1cc(C)c(S(=O)(=O)N2CCOCC2)c(C)c1C
  2.5%, -21.2%
> COc1cccc(-n2cc(C(=O)Nc3cc(OC)c(OC)c(OC)c3)c3ccccc3c2=O)c1
  -5.9%, -20.2%
> O=C(Nc1nnc(C2CC2)o1)c1ccc(S(=O)(=O)N2CCCc3ccccc32)cc1
  -28.2%, u
> Nc1nc(-c2ccc(Cl)cc2)cc(C(F)(F)F)n1
  -8.8%, -2.8%
> COc1ccccc1OCC(=O)Nc1ccc2c(c1)OCCO2
  -9.6%, i
> COc1ccc(N(C(=O)Cn2nnc(-c3ccccc3F)n2)C(C(=O)NCC2CCCO2)c2ccc(Cl)cc2)cc1 (stereo not drawn)
  -3.0%, -8.4%
> CC1CCCN(C(=O)c2cc(-c3cccs3)nc3ccccc23)C1 (stereo not drawn)
  9.8%, -0.4%
> N#Cc1ccc(N2CCOCC2)c([N+](=O)[O-])c1
  -6.3%, -1.9%
> CC1=NNC(=O)C1CCC(=O)N/N=C(\C)c1ccccc1 (stereo not drawn)
  -8.8%, -6.8%
> CCCOc1ccc(C(=O)NNC(=S)NC(=O)c2ccccc2)cc1
  u, u
> Clc1ccc(N2CCN(Cc3ccccc3Cl)CC2)cc1
  -5.9%, -11.3%
> CCc1nc(SC)ncc1C(=O)N1CCN(c2cc(C)ccc2C)CC1
  -9.4%, -12.7%
> Nc1nonc1C(=O)NCCNCc1ccccc1F
  -6.0%, 5.8%
> CCCN1CCC(NC(=O)C2CCN(C(C)=O)CC2)CC1
  -4.4%, i
> O=C(NC(c1ccc(F)cc1)c1cnccn1)C1CCN(CCOc2ccc(Cl)cc2Cl)CC1 (stereo not drawn)
  -27.1%, 13.6%
> CCCCOC(=O)c1ccc(NC(=O)CSCc2n[nH]c(=O)[nH]2)cc1
  -3.5%, x
> C=C(C)C(=O)Nc1cccc(C2=NOC3(C2)C[C@@H](C(N)=O)N(C(=O)CCCCC)C3)c1 (stereo partly drawn)
  -16.0%, i
> Cc1nn(CC(=O)NCCc2ccccc2)c(=O)c2ccccc12
  -10.6%, -16.6%
> CCN1C(=NCCOC)N[C@@H](CCc2ccccc2)[C@H](C(=O)OC)[C@H]1C
  -7.4%, -12.0%
> O=C(C(=O)N1CCN(c2ccccc2)CC1)c1ccccc1
  -3.0%, -28.1%
> O=S(=O)(NC1c2cccc3cccc(c23)C1Sc1ncccn1)c1ccccc1 (stereo not drawn)
  -24.0%, -20.7%

Following part
Results follow in this order: VACV Venus inh, Vaccinia mCherry
> Cc1cccn2c(=O)c3cc(C(=O)NCC4CCCO4)c(=N)n(Cc4ccc(F)cc4)c3nc12 (stereo not drawn)
  -8.7%, -9.7%
> O=C(Nc1cccc(Br)c1)N1CCN2CCCCC2C1 (stereo not drawn)
  -1.4%, -3.8%
> COc1cccc(NC(=O)CSc2nc(C3CC3)nc3ccccc23)c1
  -6.8%, 44.4%[activator]
> COc1cc(/C=C/C(=O)/C=C(O)/C=C/c2ccc(O)c(OC)c2)ccc1O
  -10.9%&3.7%, u
> Cc1ccc(CNS(=O)(=O)c2ccc3c(c2)NC(=O)C(C)S3)cc1 (stereo not drawn)
  -1.9%[7.34 µM], -10.4%[7.34 µM]
> Cc1cc([N+](=O)[O-])nn1Cc1noc(C(=O)NCc2ccc3c(c2)OCO3)n1
  -1.5%, -4.0%
> Cc1cc(C)cc(NC(=S)N(CCN(C)C)C(C)c2cccnc2)c1 (stereo not drawn)
  -17.3%, -10.3%
> COc1ccc(CCNC(=O)COC(=O)Cn2cnc3ccccc3c2=O)cc1
  -6.7%, i

Single records, from the list above:
`Cc1cccn2c(=O)c3cc(C(=O)NCC4CCCO4)c(=N)n(Cc4ccc(F)cc4)c3nc12` (stereo not drawn) in the list: VACV Venus inh: -8.7%; Vaccinia mCherry: -9.7%
`O=C(Nc1cccc(Br)c1)N1CCN2CCCCC2C1` (stereo not drawn) in the list: VACV Venus inh: -1.4%; Vaccinia mCherry: -3.8%
